TsaE inh: YjeE (TsaE) inhibition, E. coli. hit rate 0.05% among 71,000. P0AF67. Potency, µM. purified YjeE, fluorescence polarisation of a bound ADP probe; active = well fitted falling curve; inconclusive = weaker or top-dose-only fall, or a rising curve; inactive = flat or poorly fitted curve;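 also: top concentration of the series not given in the record; excess ADP was the control for the full effect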
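Fluorescence polarization of a BODIPY Texas Red–ADP probe (2 uM) bound to purified YjeE (10 uM) was read after 15 min room-temperature incubation with compounds. Loss of polarization marks inhibitors; ADP serves as titrated control.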
Bst PK mod: alters activity of Bacillus stearothermophilus pyruvate kinase. partly purified Bacillus stearothermophilus pyruvate kinase, luminescence ATP production; ribose 5-phosphate activator present at AC10. Potency, µM. hit rate 1.2% among 51,000. AID 361; in the data active means potency below about 11 µM; inconclusive means mostly about 12 µM to 25 µM; inactive means weaker than that;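 the screen sought inhibitors and activators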;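 also: potency is read from the fitted curve at half-maximal effect; scaled between full activation by ribose 5 phosphate and full inhibition by luteolin; about four in five hits inhibit and the cells do not say which; series up to 57 µM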
Starred values were filed as active, the others as inactive; i = inactive; ? = inconclusive; . = not tested or not shown. These rows are one share of the data; the hit share may differ from the screen's.

smiles	TsaE inh	Bst PK mod
C[C@@H]1O[C@H](O[C@@H]2\C=C/C=C\C=C/C=C\C[C@H](C)OC(=O)/C=C\[C@H]3O[C@@H]3C[C@H](O)C[C@]3(O)C[C@@H](O)[C@@H](C(=O)O)[C@H](C2)O3)[C@@H](O)[C@H](N)[C@@H]1O (stereo in doubt)	i	.
CCCN1CCC(N(C)CCc2ccc(OC)c(OC)c2)CC1	i	.
CCC(C)Nc1nc2c(c(=O)n(C)c(=O)n2C)n1Cc1ccc(F)cc1 (stereo not drawn)	i	>57
O=C(Nc1cc(C(=O)N2CCCC2)ccc1N1CCCC1)c1ccccc1	i	>57
Cc1c(NC(=O)C2CCCN2C(=O)c2cccs2)c(=O)n(-c2ccccc2)n1C (stereo not drawn)	i	>57
CCOC(=O)c1cn(CC)c2ccc(S(=O)(=O)N3CCC(C)CC3)cc2c1=O	i	>57
CN1CCN(S(=O)(=O)c2ccc(SCCOc3ccccc3)nc2)CC1	i	>57
COCCNC(=O)CSc1nc2ccc(N3CCOCC3)cc2c(=O)n1CCc1ccccc1	i	>57
Cc1cc(NC(=O)C2=C(O)c3ccccc3S(=O)(=O)N2C)no1	i	>26
O=C(Oc1c(Cl)cc(Cl)c2cccnc12)N1CCOCC1	i	.
CCNc1nc(C)nc2c1oc1ccccc12	i	>57
O=C1CCN2C=Nc3cccc4ccc1c2c34	i	?
COc1ccc(N2CCN(C(=O)C3CCCN(S(=O)(=O)c4cccc5cccnc45)C3)CC2)cc1 (stereo not drawn)	i	.
Cc1cn(C2OC(COC(=O)c3ccccc3)C(O)C2O)c(=O)[nH]c1=O (stereo not drawn)	i	>57
COC(=O)CC(=O)CSc1nc(C)cc(C)c1C#N	i	>57
CSCCC(NC(=O)COc1ccccc1)C(=O)N1CCN(c2ccccc2F)CC1 (stereo not drawn)	i	>57
Cc1ccccc1Cn1c(CN2CCc3ccccc3C2)nc2c1c(=O)n(C)c(=O)n2C	i	>57
O=C(NC1CC1)C1C2C3C4CC5C3C5C4C12 (stereo not drawn)	i	>57
O=C(O)CSc1ncn[nH]1	i	>57
COc1ccccc1N1CCN(CCN(C(=O)c2ccc(I)cc2)c2ccccn2)CC1	i	.

(further entries)
smiles	TsaE inh	Bst PK mod
COc1ccc(S(=O)(=O)N(C)CC(=O)N2CCCCCC2)cc1OC	i	>57
Cc1ccc(Cn2nnc3c(=O)[nH]c(C4CCN(C(=O)c5cccs5)CC4)nc32)cc1	i	>57
COc1cccc(C(=O)NCC(c2cccnc2)N2CCN(c3ccccc3OC)CC2)c1 (stereo not drawn)	i	.
O=C1c2ccccc2C(Nc2ccccc2F)N1c1cccnc1 (stereo not drawn)	i	.
CCOC(=O)C1CCN(C(=O)Nc2ccc3nc(-c4ccco4)c(-c4ccco4)nc3c2)CC1	i	.
Cc1cc(C)cc(NC(=O)c2nnn(Cc3cc(C)ccc3C)c2N)c1	i	.
COc1ccc(CCNc2ncnc3c2oc2ccccc23)cc1OC	i	i
COc1ccc(Cn2c3nc4ccccc4nc3c3c(=O)n(Cc4ccco4)cnc32)cc1	i	>57
CCOc1nc(-c2ccc(OC)cc2)ccc1-c1noc(-c2cccnc2)n1	i	>57
CCOc1ccc(-n2c(=O)c3sccc3n(CC(=O)NCc3ccco3)c2=O)cc1	i	>57
CC1(C)CC(=O)c2sc(NS(=O)(=O)Cc3ccccc3)nc2C1	i	>57
O=C(NCc1cccnc1)c1cccc(NC(=O)c2ccco2)c1	i	>57
CCN(CC)CCN1C(=O)C(=O)/C(=C(/O)c2ccc(OC(C)C)cc2)C1c1ccncc1 (stereo not drawn)	.	>26
CCOC(=O)N1CCC(NC(=O)CN2C(=O)COc3ccc(C(C)(C)C)cc32)CC1	i	>57
CO[C@@H]1/C=C\O[C@]2(C)Oc3c(C)c(O)c4c(O)c(cc(O)c4c3C2=O)NC(=O)/C(C)=C\C=C/[C@H](C)[C@@H](O)[C@H](C)[C@H](O)[C@H](C)[C@H](OC(C)=O)[C@@H]1C	i	.
CCC/C=C(\CCC)C(NP(=O)(c1ccccc1)c1ccccc1)c1ccc(C(F)(F)F)cc1 (stereo not drawn)	i	.
CC(=O)Nc1nc2c(c3c1c(=O)oc1ccccc13)CCCC2	i	.
OCC#CCSc1nnc(-c2ccccc2Br)o1	i	>57
OCCN1CCN(Cc2cc(Br)cc(Br)c2O)CC1	i	.
CCCS(=O)(=O)N1CCC(C(=O)NCCN2CCC(Cc3ccccc3)CC2)CC1	i	>57

In the list so far, 2 contain bromine.
smiles	TsaE inh	Bst PK mod
OCC#CCSc1nnc(-c2ccccc2Br)o1	i	>57
OCCN1CCN(Cc2cc(Br)cc(Br)c2O)CC1	i	.

Remaining list, next part:
smiles	TsaE inh	Bst PK mod
COc1ccc(S(=O)(=O)NC2(C(F)(F)F)N=C3SCCN3C2=O)cc1 (stereo not drawn)	i	>57
COc1ccc(OC)c(C(=O)CSc2nnc(-c3cccs3)n2C)c1	i	>57
O=C(COc1ccccc1Cl)N1CCCC1	i	>57
CCn1c(CNc2ccc(OC)cc2)nnc1SCC(=O)c1ccc(OC)cc1	i	>57
CC1(C)CC(=O)C2=C(C1)N(CC1CCCO1)C(=O)C2(NC(=O)c1cccnc1)C(F)(F)F (stereo not drawn)	i	>57
Cc1ccccc1-n1c(-c2cccnc2)n[nH]c1=S	i	>57
O=C(Nc1cccc(Cl)c1)Nc1ccc2c(c1)OCO2	i	.
O=C1C2CC=C(Cl)CC2C(=O)N1CNc1ccccn1 (stereo not drawn)	.	>26
O=S(=O)(c1ccccc1)N1CCC2(CCN(c3ccncc3)CC2)CC1	i	.
CCOc1ccc(OCc2ccc(C(=O)O)o2)cc1	i	>57
CCNc1ncc2nc(C)c(=O)n(CCC#N)c2n1	i	.
CSc1nnc(Cc2cc(=O)[nH]c(=O)[nH]2)n1-c1cccc(C)c1	i	>57
CCOc1ccc(N2C(=O)CC(Sc3ncccn3)C2=O)cc1 (stereo not drawn)	i	>57
Oc1c(C(c2cccs2)N2CCN(c3ccc(F)cc3)CC2)sc2ncnn12 (stereo not drawn)	i	.
O=S(=O)(c1ccc(Br)cc1)N1CCn2c(nc3ccccc32)C1	i	.
CS(=O)(=O)N(CC(=O)N1CCN(Cc2ccccc2)CC1)Cc1ccccc1	i	>57
CCCCOc1ccc(N(CC(=O)NC2CCCC2)C(=O)CCC(=O)Nc2ccccn2)cc1	i	>57
N=C(N)c1ccc(OCCCCCOc2ccc(C(=N)N)cc2)cc1 (tested in a mixture with another compound)	i	.
CSc1nnc(-c2cnccn2)n1CCCN1CCCC1=O	i	>57
O=C(CN1CC(=O)Oc2ccccc21)OCC(=O)c1ccccc1	i	>57

Quoted from above (3 entries):
smiles	TsaE inh	Bst PK mod
COc1ccc(S(=O)(=O)NC2(C(F)(F)F)N=C3SCCN3C2=O)cc1 (stereo not drawn)	i	>57
COc1ccc(OC)c(C(=O)CSc2nnc(-c3cccs3)n2C)c1	i	>57
O=C(COc1ccccc1Cl)N1CCCC1	i	>57

Additional compounds follow:
smiles	TsaE inh	Bst PK mod
O=C(NCCc1ccccc1)c1ccc(-n2cnnn2)cc1	i	>57
CN1CCN(c2ccc(Cl)cc2NC(=O)c2cccc(S(=O)(=O)N(C)C)c2)CC1	i	>57
CCc1ccc(C(=O)CC2(O)C(=O)N(CN3CCOCC3)c3ccccc32)cc1 (stereo not drawn)	i	>57
NC(=O)SCC(=O)Nc1ccc2ncccc2c1	i	.
Cc1ccc(C(=O)CC(C(=O)O)n2cccn2)cc1 (stereo not drawn)	i	>57
O=C(O)C1CCN(C(=O)COc2ccc3c4c(c(=O)oc3c2)CCC4)CC1	i	>57
CN(C)CC(O)COc1ccc(C(C)(C)c2ccc(OCC(O)CN(C)C)cc2)cc1 (stereo not drawn)	.	>26
CCOC(=O)CSc1nc2ccccc2c(=O)n1Cc1ccco1	i	>57
c1ccc(CN2CCC3(CC2)SSC2(CCN(Cc4ccccc4)CC2)SS3)cc1	i	.
Cc1ccc(CNC(=O)c2sccc2-n2cccc2)cc1	i	>57
CCOc1ccccc1N1CCN(C(=O)c2cc[n+]([O-])cc2)CC1	i	>57
CCNc1sc(C(=O)c2cccs2)c(N)c1C#N	.	>26
CCOC(=O)Cn1c(=O)oc2cc(S(=O)(=O)N(C)Cc3ccco3)ccc21	i	.
COC(=O)c1ccc(CSc2nnc(CNC(=O)COc3ccc(Cl)cc3)o2)o1	i	>57
CC1Cc2ccccc2N1C(=O)C1CCCN(S(=O)(=O)c2cccc3nsnc23)C1 (stereo not drawn)	i	>57
COc1ccc(S(=O)(=O)NCCC(=O)NCc2ccc(F)cc2)cc1	i	>57
O=C(c1ccc(-c2cccc(C(F)(F)F)c2)o1)N1CCOCC1	i	>57
CCOC(=O)CON1C(=O)C(C)(C)N(OCC(=O)OCC)C(=O)C1(C)C	i	.
O=c1oc2cc(Br)ccc2n1CSC1=NCCS1	i	>57
O=c1c(O)c(-c2ccc(O)cc2)oc2cc(O)cc(O)c12	i	.

(continued)
smiles	TsaE inh	Bst PK mod
C=CCNc1nc2c(c(=O)n(C)c(=O)n2C)n1CCCCCC	i	>57
COC(=O)c1cn(C(=O)c2ccco2)c2ccccc12	i	.
CCn1cc(C(=O)NCC2CCCO2)c(=O)c2cc(S(=O)(=O)N3CCC(C)CC3)ccc21 (stereo not drawn)	i	>57
CC1=C(C#N)C(Nc2cccc(C)n2)(C(F)(F)F)C(=O)N1 (stereo not drawn)	i	>57
CC(=O)N1CCN(Cc2nc3cc(NC(=O)C4CCCCC4)ccc3n2C)CC1	i	>57
Nc1nc(NCc2c(F)cccc2Cl)nn1-c1ccccc1	i	>57
CC(C)(C)NC(=O)C1CCN(S(=O)(=O)c2ccc(Br)cc2)CC1	i	>57
Cc1c(-c2nc(N)nc(Nc3ccccc3)n2)oc2ccccc12	i	?
COc1ccc(OC)c(C2C(C(C)=O)=C(O)C(=O)N2CCN2CCOCC2)c1 (stereo not drawn)	i	.
CCc1nnc(NC(=O)CCC(=O)Nc2ccccc2)s1	i	>57
Oc1ccc(CNCc2ccccc2)c2cccnc12	i	.
O=C(NCc1ccc2c(c1)OCO2)c1cc2n(n1)C(C(F)(F)F)CC(c1ccc3c(c1)OCO3)N2 (stereo not drawn)	i	>57
COc1cc2nc(=S)n3[nH]c(CCn4c(C)nc5ccccc54)nc3c2cc1OC	i	>57
CSCC[C@H](NC(=O)C1CCN(S(=O)(=O)c2ccc(C)cc2)CC1)C(=O)NCC1CCCO1 (stereo partly drawn)	i	>57
CCCCN(CC)CCNC(=O)c1cc2c(C)nc3ccccc3c2o1	i	.
COc1ccc(Cl)cc1S(=O)(=O)N1CCN(C(=O)c2cc(OC)c(OC)c(OC)c2)CC1	i	>57
O=C(CSc1nnnn1-c1ccccc1)Nc1ccc(Cl)cc1	i	.
CCOC(=O)N1CCN(S(=O)(=O)c2c(C)cc(C)cc2C)CC1	i	>11
Cc1ccc(CNC(=O)c2ccccc2NC(=O)CSc2nnnn2C)cc1	i	>57
O=C(CN(Cc1ccc(F)cc1)S(=O)(=O)c1ccccc1)N1CCCCC1	i	.

(list continues)
smiles	TsaE inh	Bst PK mod
O=C(NCCc1ccccc1)C1CCCN(S(=O)(=O)c2cccc3nsnc23)C1 (stereo not drawn)	i	>57
CCOC(=O)c1c(C)oc2ccc(NS(=O)(=O)c3ccc4c5c(cccc35)C(=O)N4)cc12	i	>57
CCCOC(=O)NC(CC)COC(=O)Nc1cc(C)ccc1C (stereo not drawn)	i	>57
COc1cccc(OC)c1C(=O)N1CCN(c2ccccn2)CC1	i	>57
CC1CCCCN1C(=O)Cn1c(=O)n(CCC(=O)NCc2ccco2)c(=O)c2sccc21 (stereo not drawn)	i	>57
O=C(CN(C1CC1)S(=O)(=O)c1ccc(S(=O)(=O)N2CCCCCC2)cc1)Nc1ccccc1	i	>57
O=C(Cn1cc2c(n1)CCCCC2)N1CCc2ccccc2C1	i	.
CCOC(=O)CN1CC23C=CC(O2)C(C(=O)N2CCN(c4ccc(F)cc4)CC2)C3C1=O (stereo not drawn)	i	.
Cc1ccc(NCc2nnc(SCC(=O)c3ccccc3)n2Cc2ccco2)c(C)c1	i	>57
COC(=O)COc1nc(C)c(Br)c(OC)n1	i	>57
O=C(O)CCN(CCC(=O)O)S(=O)(=O)c1ccccc1	i	>57
O=C(OC(C(=O)NCC1CCCO1)c1ccccc1F)c1ccco1 (stereo not drawn)	i	>57
CO/N=C(\C(=O)N[C@@H]1C(=O)N2C(C(=O)O)=C(COC(N)=O)CS[C@@H]12)c1ccco1	i	.
Cn1c(=O)[nH]c(=O)c2c1nc(OC(=O)c1ccccc1)n2CC(O)COc1ccc(F)cc1 (stereo not drawn)	i	>57
Cc1noc(C)c1-c1cc(NC2CCNCC2)ncn1	i	.
COc1cccc(-c2csc(N3CCN(Cc4ccccc4)CC3)n2)c1	i	>57
O=c1c2ccccc2nc(SCc2cn3ccsc3n2)n1-c1ccccc1F	i	>57
CC(=O)c1cccc(NC(=O)CN(c2ccc(C)cc2)S(=O)(=O)c2cccc3nonc23)c1	i	>57
